RE007 growth inh – less growth of the S. pombe RE007 Vpr strain | S. pombe RE007 Vpr strain, BacTiter-Glo ATP luminescence, 24 h; control for the full effect not named in the record | Potency, µM (series often up to 92.2 µM), for inactives: top-dose activity change, negative = less growth | 0.21% of 360,000 active | AID 651644; active = well fitted falling curve with a large enough effect; inconclusive = small, poorly fitted or top-dose-only effect; inactive = no such curve, though single readings can be large or run the other way;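 note: % is set by controls: 0 for no effect and ±100 for the full control effect; nearly all actives have a fitted effect of over 50% in size; the assay follows cell death caused by Vpr and the record does not say whether a fall means rescue or toxicity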
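Fission yeast RE007 carrying one integrated HIV-1 vpr copy, seeded at OD 0.01 in PMG+AL medium with 23 nL pinned compound. Grown 24 h at 30 degrees; viability read by BacTiter-Glo luminescence after 5 min.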
NS1 function inh – blocks influenza NS1 protein function; Potency, µM (series often up to 46.1 µM), without a hit: at the top dose activity, positive = more growth; S. cerevisiae slowed by influenza A NS1, growth recovery by OD600; 0.4% of 270,000 active; active means well fitted rising curve with a large enough effect; inconclusive means small, poorly fitted or top-dose-only effect; inactive means no such curve, though single readings can be large or run the other way; note: nearly all actives have a fitted effect of over 50% in size
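Compounds were scored for reversing the slow growth caused by influenza A NS1 in S. cerevisiae, measured by optical density at 600 nm. Assay medium contained 2% galactose at pH 6.0; NS1-free yeast of the same strain were the positive control.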
Cruzain inh Det – inhibitors of Trypanosoma cruzi cruzain with detergent. 0.43% of 200,000 active. Potency, µM, without a hit: max response, negative = inhibition, most hits filed as inhibitors. purified cruzain, Z-FR-AMC fluorescence, 0.01% Triton. P25779;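 note: plate controls were neutral wells for no effect and buffer without enzyme for full effect; nearly all actives have a fitted effect of over 40% in size; top concentration of the series not given in the record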
Target sequence (P25779 123-467 limits assumed): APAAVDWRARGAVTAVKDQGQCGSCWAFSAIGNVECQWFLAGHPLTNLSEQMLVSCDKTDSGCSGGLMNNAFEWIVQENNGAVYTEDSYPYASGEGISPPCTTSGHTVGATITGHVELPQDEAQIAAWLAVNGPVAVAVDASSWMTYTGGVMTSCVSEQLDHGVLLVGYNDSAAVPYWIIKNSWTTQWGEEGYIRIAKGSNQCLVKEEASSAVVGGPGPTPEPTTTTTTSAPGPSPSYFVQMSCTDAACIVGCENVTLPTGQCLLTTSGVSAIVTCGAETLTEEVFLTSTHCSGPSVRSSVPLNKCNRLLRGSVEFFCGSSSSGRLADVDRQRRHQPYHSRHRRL
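Compounds were screened in titration against cruzain (1.5 nM) with 0.01% Triton X-100 to counter colloidal aggregation. Activity was the AMC fluorescence increase over 60 s after adding 2 uM Z-FR-AMC at pH 5.5.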
Marburg entry inh – inhibitors of Marburg virus binding or cell entry; Potency, µM (doses to about 37.8 µM), without a hit: at the top dose activity change, negative = inhibition, actives largely listed as inhibitors; Marburg virus pseudotyped entry inhibition, cell reporter; control for the full effect not named in the record; about a third of the inactives were read at about 46 µM; AID 540276; 1.8% of 300,000 active; active = well fitted inhibition curve with a large enough effect; inconclusive = small, poorly fitted or top-dose-only effect, or effect the other way; inactive = flat fitted curve, though single readings scatter; tested in HEK293 cells; about a fifth of its hits are not listed in these tables; note: % is set by controls: 0 for no effect and ±100 for the full control effect; luciferase read-out
SARS PLP yeast – SARS-CoV PLP inhibition in yeast | S. cerevisiae expressing SARS-CoV PLpro, growth rescue; control for the full effect not named in the record | Potency, µM (highest dose often 32.9 µM), inactives show at the top dose activity, positive = growth rescue | 0.19% of 330,000 active; active means well fitted rising curve with a large enough effect; inconclusive means small, poorly fitted or top-dose-only effect; inactive means no such curve, though single readings can be large or run the other way; note: 0% is about no effect; nearly all actives have a fitted effect of over 55% in size; growth read by luminescence after 48 h
StopGo reporter – lowers the luciferase signal of an FMDV 2A StopGo reporter; human cells with a luciferase reporter of 2A StopGo recoding; control for the full effect not named in the record; Potency, µM (highest dose often 57.9 µM), without a hit: top-dose signal change, negative = less light; 1.2% of 410,000 active; AID 1159524; active = well fitted falling curve with a large enough effect; inconclusive = small, poorly fitted or top-dose-only effect; inactive = no such curve, though single readings can be large or run the other way; tested in HEK293T cells; note: % is set by controls: 0 for no effect and ±100 for the full control effect; nearly all actives have a fitted effect of over 45% in size; luciferase light after 4 h
LASV entry inh – blocks Lassa virus binding to or entry into cells; Lassa virus pseudotype entry inhibition, cell reporter; control for the full effect not named in the record; Potency, µM (doses to about 37.9 µM), inactives show at the top dose activity change, negative = inhibition, usual class: inhibitors; 1.2% of 300,000 active; AID 540256; active means well fitted inhibition curve with a large enough effect; inconclusive means small, poorly fitted or top-dose-only effect, or effect the other way; inactive means flat fitted curve, though single readings scatter; tested in HEK293 cells; note: % is set by controls: 0 for no effect and ±100 for the full control effect; nearly all actives have a fitted effect of over 50% in size; luciferase read-out
Cruzain noTriton – blocks cruzain activity in detergent-free assay | 2.3% of 200,000 active | Potency, µM, without a hit: max response, negative = inhibition, most hits filed as inhibitors | AID 1476 | purified cruzain, Z-FR-AMC fluorescence, no detergent;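 note: plate controls were enzyme without inhibitor for no effect and buffer without enzyme for full effect; nearly all actives have a fitted effect of over 40% in size; top concentration of the series not given in the record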
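Purified cruzain at 1.5 nM, pre-incubated 15 min with compound at room temperature in 100 mM sodium acetate pH 5.5, 5 mM DTT, 0.00005% Triton X-100. Reaction started with 2 uM Z-FR-AMC; AMC fluorescence increase over 60 s gives rate.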
Active calls of the source: *; ? = inconclusive; · = no result given; & = joins results of further samples; [ ] = remark or other dose. Unless noted, calls come from the whole dose curve; as a rule, active = well fitted curve in the direction sought with a large enough effect; inconclusive = small, poorly fitted or top-dose-only effect, or another doubt; inactive = no such curve, though single readings can be large; an effect the other way counts as inactive or inconclusive. Potency is the fitted concentration of half-maximal effect.

SMILES	RE007 growth inh	NS1 function inh	Cruzain inh Det	Marburg entry inh	SARS PLP yeast	StopGo reporter	LASV entry inh	Cruzain noTriton
CC1CCC(NC(=O)c2ccc(CNc3c(NC4CCCCC4)c(=O)c3=O)cc2)CC1 (centres undefined)	-4%	3%	-2.1%	8%	4%	25%	4%	?
Cc1ccc(OCC(=O)Nc2ccc(S(=O)(=O)Nc3cc(C)nc(C)n3)cc2)cc1	9%	5%	·	·	1%	63%[activator]	·	·
CCN(CC)CCC(=O)Nc1cccc2c1C(=O)c1ccccc1C2=O	-25%	-3%	·	?	-3%	5%	12%	·
O=C(NCc1cccc(Cl)c1)C1CCN(c2nnc(N3CCCC3=O)s2)CC1	-12%	-16%	·	·	13%	-19%	·	·
Cc1cc(C)n(-c2nc3ccccc3nc2Nc2ccc3[nH]c(=O)[nH]c3c2)n1	-7%	-13%	5.9%	-18%	15%	?	7%	-5%
CCCN1C(=O)C(O)(CC(=O)c2ccc(CC)cc2)c2cc(Br)ccc21 (centres undefined)	·	·	-10%	·	·	-3%	1%[46.1 µM]	3%
O=c1cc(CO)[nH]cc1OCc1ccccc1	6%	3%	·	21%[46.1 µM]	-1%	-2%	16%	·
Cc1cc(NC(=O)CSc2nnc(-c3cccnc3)n2N)no1	-1%	7%	-4.3%	3%[46.1 µM]	-6%	-16%	?	-7%
COc1cccc(/C=N/NC(=O)C(c2ccncc2)N2CCOCC2)c1 (centres undefined)	0%	2%	·	8%[46.1 µM]	0%	-4%	8%	·
CCOC(=O)C1CCCN(CCC(=O)Nc2c(C(=O)OC)[nH]c3cc(OC)ccc23)C1 (centres undefined)	10%	-10%	-3.3%	0%	-3%	-17%	-5%	1%
CCCNC(=O)c1cc(C)no1	-2%	9%	1.2%	-8%	-5%	23%	1%	0%
O=C(NCc1ccc(F)cc1)C(=O)NCC1OCCN1C(=O)c1cccs1 (centres undefined)	1%	4%	5.4%	?	5%	-20%	-14%	2%
CCS(=O)(=O)c1ccc(Sc2nncn2C)c([N+](=O)[O-])c1	0%	·	·	?	-5%	-28%	-2%	·
NS(=O)(=O)c1cc(C(=O)OCC(=O)Nc2ccc(N3CCCCC3)cc2)ccc1Cl	-1%	-1%	·	·	-1%	12%	·	·
O=C(Nc1c2c(nn1-c1ccc(Cl)cc1)CS(=O)(=O)C2)c1ccc(Br)cc1	·	·	0.9%	·	·	?	?	-9%
O=C(CNC(=O)C(c1ccccc1)c1ccccc1)OCC(=O)c1cccs1	-4%	-7%	20µM*	-2%	-23%	-14%	6%	13µM*
CNc1nc(Nc2ccc(C(C)=O)cc2)nc(OC(C(F)(F)F)C(F)(F)F)n1	1%	?	-4.7%	?	2%	?	?	?
COc1cccc(CNC(=O)CCC2CCCN(C(=O)c3csc(C(C)C)n3)C2)c1 (centres undefined)	2%	-1%	·	8%[46.1 µM]	1%	-14%	25%[46.1 µM]	·
Cc1c(C(=O)Nc2ccccc2N2CCN(C)CC2)oc2ccc(F)cc12	-7%	·	·	?	-1%	?	-1%	·
COc1ccc(CCNC(=O)CCn2c(=O)c3ccccc3n(Cc3ccccc3C)c2=O)cc1OC	·	·	-1.1%	?	·	-22%	-10%[46.1 µM]	-9%
CC(C)(C)C(=O)NC(=S)Nc1ccc(Cl)c(C(=O)O)c1	2%	·	·	?	0%	0%	-2%[46.1 µM]	·
COc1ccc(N(CC(=O)N2CCOCC2)S(C)(=O)=O)c(OC)c1	2%	17%	·	-13%	0%	-10%	28%	·
COc1cccc(NC(=O)Nc2cnccn2)c1	-2%	-6%	·	23%[46.1 µM]	-1%	69%[activator]	-8%	·
CC(=O)c1cccc(NC(=O)COc2ccccc2)c1	0%[3.69 µM]	-1%	2.0%	-11%	-11%	43%[activator]	?	-2%
COc1cc(C=O)ccc1OCCOCCOc1ccc(Cl)cc1Cl	-2%	·	·	2%	·	-21%	5%	·
O=C(COc1ccccc1Cl)Nc1ccc(C(=O)O)cc1NC(=O)COc1ccccc1Cl	-1%	12%	·	-5%	3%	?	17%	·
CO/N=C/CC(=O)c1cnc(-c2ccccc2)s1	-3%	·	·	?	-4%	35%[activator]	5%	·
COc1cc(C(=O)Nn2c(O)c(C3=c4ccccc4=NC3=O)sc2=S)ccc1O	12%	8%	·	·	0%	-14%	·	·
COc1ccc(Cl)cc1NC(=O)CN1CCN(Cc2ccccc2)CC1	-8%	-7%	·	-7%	1%	-8%	?	·
CCNC(=O)NNC(=O)C1CC(c2cccs2)=NO1 (centres undefined)	2%	3%	·	?	1%	27%	27%[46.1 µM]	·
CC1CN(S(=O)(=O)N(C)C)CCN1S(=O)(=O)N(C)C (centres undefined)	-1%	5%	0.3%	-16%	2%	-4%	-7%	-8%
Cc1cc(C)cc(NC(=O)CSc2nc3[nH]c(=O)cc(O)c3s2)c1	2%	12%	·	-2%[46.1 µM]	2%	-5%	-2%	·
O=C(Nc1ccc(-n2cnnn2)cc1)C(c1ccccc1)c1ccccc1	-2%	·	·	11%[46.1 µM]	0%	6%	18%[46.1 µM]	·
CCn1ccc(C(=O)N2CCOCC2)n1	-16%	-2%	·	19%[46.1 µM]	0%	-3%	-14%	·
O=C(Nc1ccc(S(=O)(=O)NCc2cccnc2)cc1)c1ccccc1Cl	-6%	1%	-4.8%	?	-7%	?	-22%	-13%
Cc1ccccc1-n1c(/C=C/c2ccc(N(C)C)cc2)nc2ccccc2c1=O	·	·	-7.1%	·	·	-26%	?	?
FC(F)(F)c1cccc(N2CCNCC2)c1	·	·	-1.1%	·	-10%	6%	·	-15%
Cc1cc(C)cc(NC(=O)CN2CCN(c3ccccc3)CC2)c1	-11%	1%	·	·	1%	-10%	·	·
CN(C)CCNC(=O)c1cccc(S(=O)(=O)Nc2ccc(F)cc2)c1	-5%	6%	·	16%[46.1 µM]	6%	-8%	?	·
Cc1ccc(C)c(Cn2c3ccccc3c3cnn(CC(=O)NCCC4=CCCCC4)c(=O)c32)c1	·	·	-0.3%	?	·	-11%	7%[46.1 µM]	23%
COc1ccccc1CN1CCC(CNS(=O)(=O)c2cc(-c3cc(C)no3)ccc2OC)CC1	11%	6%	·	·	3%	-5%	·	·
Cc1ccc2scc(N3CCCCC3C)c(=O)c2c1 (centres undefined)	·	·	-3.7%	·	·	-27%	13%[46.1 µM]	6%
CCCCNC(=O)CSc1nccn1Cc1ccccc1	2%	-79%	1.2%	21%	0%	·	1%	10%
O=C1c2cccc3cccc(c23)C(=O)N1c1ccc2ncccc2c1	20%	8%	18µM*	?	-11%	-4%	?	?
COc1cc(OC)c(NC(=O)CCS(=O)(=O)c2ccc3c(c2)oc(=O)n3C)cc1Cl	·	·	-2.4%	·	·	-23%	29%[46.1 µM]	-7%
CCOc1ccc(S(=O)(=O)N2CCCCC2)cc1NC(=O)C1CSC2(C)CCC(=O)N12 (centres undefined)	-1%	·	·	1%[46.1 µM]	-12%	-8%	-21%	·
CCOC(=O)C(C)Oc1cc(C)cc2oc(=O)c3c(c12)CCCC3 (centres undefined)	9%	-24%	-9.2%	?	-16%	?	?	18%
Cc1c(C(=O)NCC2CCCO2)oc2ccc3c(c12)C(=O)CC(C)(C)O3 (centres undefined)	-4%	-19%	-10%	?	-7%	-16%	?	-2%
CCN(CC)S(=O)(=O)c1ccc2c(c1)c(=O)c(C(=O)N1CCN(c3ccc(OC)cc3)CC1)cn2C	·	·	-11%	9%[46.1 µM]	·	4%	-2%[46.1 µM]	3%
O=C(NCCNC(=O)c1ccccn1)c1ccccc1	-6%	-6%	·	-6%[46.1 µM]	1%	22%	?	·
O=C(CSc1nnc(-c2cccnc2)o1)Nc1ccc(Cl)cc1	-24%	8%	·	?	-3%	-3%	?	·
CCCC(=O)NC1=C(Cl)C(=O)c2ccccc2C1=O	7.1µM*	·	·	?	·	?	?	·
CCOC(=O)c1c(NC(=O)/C=C/C(=O)O)sc(C)c1-c1ccc(C)c(C)c1	-29%	0%	·	?	-1%	32µM*	?	·
Cc1ccccc1NC(=O)CSc1ccc(-c2ccc(-n3cccn3)cc2)nn1	-1%	·	·	21%	·	-5%	-5%	·
Cc1ccc(-n2c(=O)c3cccnc3n2CC(=O)Nc2cc(Cl)ccc2C)cc1	·	·	-1.1%	·	·	-23%	-20%[46.1 µM]	-23%
Cc1ccc(C(=O)Cn2c(NCCO)nc3ccccc32)cc1	22%	-3%	1.5%	?	?	0%	0%	12%
O=C(Cn1cccc1)Nc1ccc(F)cc1F	2%	0%	5.5%	-16%	16%	22%	33%[14.3 µM]	-2%
CC(=O)c1cccc(OCC(O)CN2CCN(C(=O)c3ccco3)CC2)c1 (centres undefined)	-3%	8%	·	?	0%	8%	1%	·
O=C(CNC(=O)c1ccccc1)OCCOc1cccc(Cl)c1	-10%	·	·	28%	5%	-15%	1%	·
COC(=O)Cc1c(C)nc2nc(-c3cccnc3)[nH]n2c1=O	0%	4%	5.2%	-3%	8%	-13%	0%	1%
Carrying on:
SMILES	RE007 growth inh	NS1 function inh	Cruzain inh Det	Marburg entry inh	SARS PLP yeast	StopGo reporter	LASV entry inh	Cruzain noTriton
C=CCO/N=C(/C)c1ccc(Oc2cnccn2)cc1	1%	·	·	1%[46.1 µM]	-1%	28%	-1%	·
Cc1ccc(/C=N/N2CCN(c3ccccn3)CC2)cc1	-17%	·	·	16%[46.1 µM]	1%	23%	?	·
O=C(CSc1ccc(Cl)cc1)N1CCOCC1	-8%	-1%	-0.3%	12%[46.1 µM]	2%	43%[activator]	8%	0%
Cc1c(C(=O)Nc2ccc(F)c(F)c2)oc2ccc(S(=O)(=O)N3CCCCC3)cc12	5%	0%	1.2%&0.0%	?	-1%	14µM*	16%[46.1 µM]	-4%&1%
O=C(N=C1SC2CS(=O)(=O)CC2N1c1ccc(F)cc1F)C1CC1 (centres undefined)	-1%	?	·	0%[46.1 µM]	-3%	-12%	-1%[46.1 µM]	·
